PAD4 inh = human PAD4 inhibitors, primary screen, biochemical, fluorescence polarization, 1536-well format | Protein-arginine deiminase type-4 (Homo sapiens), Q9UM07 | recombinant PAD4, RCA probe fluorescence polarization | inhibition, % at 6.36 µM | actives 0.41% (n = 330,000) | AID 485272, 2010;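 active means percent inhibition above a cutoff equal to the mean of all tested compounds plus 3 SD, cut at about 15% in these data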;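 further: 0% = PAD4 with RCA probe and DMSO and 100% = probe without PAD4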
PAFAH1B3 inh = PAFAH1B3 enzyme inhibitors, primary screen, biochemical, fluorescence polarization, human; Platelet-activating factor acetylhydrolase IB subunit alpha1 (Homo sapiens), Q15102; inhibition, % at 3.39 µM; actives 0.28% (n = 340,000); recombinant PAFAH1B3, FP-rhodamine probe;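 active means inhibition above the screen-wide average of all tested compounds plus 3 SD, cut at about 25% in these data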;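 further: 0% = enzyme with DMSO only and 100% = wells lacking PAFAH1B3 protein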
Target sequence (Q15102 whole entry, looked up): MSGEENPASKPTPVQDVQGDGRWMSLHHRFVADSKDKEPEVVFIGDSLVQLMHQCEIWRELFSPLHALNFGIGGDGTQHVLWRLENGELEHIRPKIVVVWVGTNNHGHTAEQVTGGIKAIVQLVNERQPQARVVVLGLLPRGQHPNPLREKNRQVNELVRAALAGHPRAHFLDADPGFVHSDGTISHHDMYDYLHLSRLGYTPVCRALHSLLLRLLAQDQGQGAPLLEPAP
LYPLA1 counter = LYPLA1 inhibitors, primary screen, counter-screen for PME1 inhibitor project, biochemical, fluorescence polarization, FP-Rh probe ABPP. inhibition, % at 5.9 µM. Acyl-protein thioesterase 1 (Homo sapiens), O75608. actives 0.16% (n = 320,000). AID 2174, 2009. recombinant LYPLA1;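 active means inhibition above the mean of all tested compounds plus 3 SD, set per campaign, cut at about 14% in these data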;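 further: inhibitors block serine hydrolase probe labeling of LYPLA1 so polarization falls; 0% = enzyme with DMSO and 100% = wells lacking LYPLA1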
Target sequence (O75608 whole entry, looked up): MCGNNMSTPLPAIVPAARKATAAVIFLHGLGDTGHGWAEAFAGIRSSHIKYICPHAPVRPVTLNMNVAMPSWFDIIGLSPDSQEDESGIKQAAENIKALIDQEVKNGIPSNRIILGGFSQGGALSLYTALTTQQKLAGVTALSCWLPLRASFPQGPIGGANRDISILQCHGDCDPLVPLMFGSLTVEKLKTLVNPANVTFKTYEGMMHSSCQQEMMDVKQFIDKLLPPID
LYPLA2 counter = LYPLA2 inhibitors, primary screen, counter-screen for PME1 inhibitor project, biochemical, fluorescence polarization, FP-Rh probe ABPP | recombinant LYPLA2 | inhibition, % at 5.9 µM | actives 0.38% (n = 320,000);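 active means inhibition above the screen-wide mean plus 3 SD, limit set per campaign, cut at about 26% in these data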;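 further: 0% = LYPLA2 with DMSO and 100% = wells lacking LYPLA2 enzyme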
Target sequence (O95372 whole entry, looked up): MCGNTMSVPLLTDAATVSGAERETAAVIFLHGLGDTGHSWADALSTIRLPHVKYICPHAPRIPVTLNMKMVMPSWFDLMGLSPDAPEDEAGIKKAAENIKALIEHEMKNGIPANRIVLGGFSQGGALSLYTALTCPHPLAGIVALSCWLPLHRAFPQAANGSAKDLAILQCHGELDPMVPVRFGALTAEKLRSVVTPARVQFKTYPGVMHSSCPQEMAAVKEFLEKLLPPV
PAFAH2 FP inh = PAFAH2 enzyme inhibitors, primary screen, biochemical, fluorescence polarization, human; Platelet-activating factor acetylhydrolase 2, cytoplasmic (Homo sapiens), Q99487; recombinant PAFAH2, FP-rhodamine activity probe; inhibition, % at 3.39 µM; actives 0.99% (n = 340,000);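 active means inhibition above the mean over all tested compounds plus 3 SD, cut at about 30% in these data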;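 further: inhibitors block probe labeling of enzyme so polarization drops; 0% = enzyme with DMSO and 100% = wells lacking PAFAH2 protein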
ZTA DNA inh = counter-screen for EBNA-1 inhibitors: inhibitors of Epstein-Barr virus ZTA; P03206; ZTA-DNA binding, fluorescence polarization; inhibition, % at 11 µM; actives 0.15% (n = 320,000); in the data active means inhibition above about 33%
Target sequence (P03206 whole entry, looked up): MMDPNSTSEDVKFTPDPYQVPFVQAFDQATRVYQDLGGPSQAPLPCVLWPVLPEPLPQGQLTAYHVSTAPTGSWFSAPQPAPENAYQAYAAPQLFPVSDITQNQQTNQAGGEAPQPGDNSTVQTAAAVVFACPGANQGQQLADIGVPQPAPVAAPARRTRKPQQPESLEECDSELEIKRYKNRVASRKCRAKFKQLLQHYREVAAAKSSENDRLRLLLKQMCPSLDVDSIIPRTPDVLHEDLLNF
EBNA-1 inh = EBNA-1 DNA-binding inhibitors, primary screen, biochemical, fluorescence polarization; inhibition, % at 14.8 µM; actives 0.34% (n = 300,000); AID 1950, 2009; in the data active means inhibition above about 28%
* = called active by the depositor; / = no result given. These rows are one share of the data (hit frequency here may not be typical).

nr	molecule	PAD4 inh	PAFAH1B3 inh	LYPLA1 counter	LYPLA2 counter	PAFAH2 FP inh	ZTA DNA inh	EBNA-1 inh
1	O=C(NCc1ccccc1)c1ccc(COCC(F)(F)F)o1	-2	7	-2	-1	-15	7	10
2	CCS(=O)(=O)Nc1ccc(-c2ccc(NS(=O)(=O)CC)c(OC)c2)cc1OC	-4	2	2	-1	6	6	11
3	O=S(=O)(Nc1ccc(-c2nc3cccnc3s2)cc1)c1cccs1	-2	0	-2	-2	11	8	-6
4	CC(=O)N(CCC(c1ccco1)C(C)C)Cc1ccc(OC(C)C)cc1 (configuration not stated)	-2	7	-1	2	-1	-1	1
5	COc1ccc(CC(=O)c2ccccc2C(=O)O)cc1	-3	3	2	0	6	-1	-1
6	COc1cccc(OCC(=O)NNC(=O)c2cccs2)c1	1	0	-6	4	5	15	4
7	O=C(c1ccccc1F)N1CCC(N2CCCCCC2)CC1	-3	4	3	2	1	0	-3
8	CCn1c(SCC(=O)Nc2nc3ccccc3s2)nc2c(c1=O)SC(C)C2 (configuration not stated)	-6	/	-3	-4	/	-3	0
9	Cc1cccc(S(=O)(=O)NCCC(=O)OC(C)C(=O)NC(=O)NC2CCCCC2)c1 (configuration not stated)	-8	4	-2	0	-3	-2	-10
10	CCN(CC)C(=O)CSc1nc2cc(OC)c(OC)cc2c(=O)n1Cc1ccc(Cl)cc1	-2	4	-4	-5	2	14	6
11	C=CCn1c(CCNC(=O)c2ccccc2F)nnc1SCC(=O)Nc1ccc(OC)cc1	3	3	3	3	-2	-7	2
12	COc1ccc(-c2nnc(SC)o2)c(OC)c1	-1	11	0	-1	-4	-9	-4
13	CN(C)c1nc(Nn2cnnc2)nc(N(C)C)n1	0	1	1	-1	-3	13	-5
14	O=C(Cc1ccccc1)NC1CCN(S(=O)(=O)c2cccc(F)c2)CC1	-2	6	1	1	-6	-15	4
15	CN(C(=O)CCc1ccccc1)c1nnc(-c2ccncc2)s1	-3	-7	-3	11	-1	-24	-11

Next section, overlapping the part above by 5 compounds.
nr	molecule	PAD4 inh	PAFAH1B3 inh	LYPLA1 counter	LYPLA2 counter	PAFAH2 FP inh	ZTA DNA inh	EBNA-1 inh
11	C=CCn1c(CCNC(=O)c2ccccc2F)nnc1SCC(=O)Nc1ccc(OC)cc1	3	3	3	3	-2	-7	2
12	COc1ccc(-c2nnc(SC)o2)c(OC)c1	-1	11	0	-1	-4	-9	-4
13	CN(C)c1nc(Nn2cnnc2)nc(N(C)C)n1	0	1	1	-1	-3	13	-5
14	O=C(Cc1ccccc1)NC1CCN(S(=O)(=O)c2cccc(F)c2)CC1	-2	6	1	1	-6	-15	4
15	CN(C(=O)CCc1ccccc1)c1nnc(-c2ccncc2)s1	-3	-7	-3	11	-1	-24	-11
16	CC1Cc2nc(SCC(=O)NCCc3ccccc3)n(C)c(=O)c2S1 (configuration not stated)	-5	-2	0	1	-7	3	8
17	Cc1ccc2oc(=O)cc(CN3CCOCC3)c2c1	-6	1	0	-2	0	7	-3
18	CC(NS(=O)(=O)c1ccc(OCC(=O)N2CCOCC2)c(Cl)c1)c1ccccc1 (configuration not stated)	0	-2	3	7	2	8	-7
19	CCOc1cc(-c2nc3cc(C)ccn3c2NCC2CCCO2)ccc1O (configuration not stated)	-3	6	1	-1	-4	-4	-12
20	O=C(N/N=C/c1ccc2c(c1)OCO2)c1ccc(NS(=O)(=O)c2cccs2)cc1	-1	5	2	0	3	1	-6
21	CCOC(=O)c1sc2c(c1C)c(=O)n(CCO)c(=O)n2Cc1ccccc1	0	1	-4	-6	-10	6	-16
22	CCOC(=O)N1CCN(C(=O)c2cc(-c3ccc(OCC)cc3)nc3ccccc23)CC1	-1	6	0	2	-2	3	1
23	Cc1ccc(NCc2nnc(SCC(=O)NCc3ccco3)n2CC2CCCO2)c(C)c1 (configuration not stated)	0	-1	2	10	-3	12	2
24	CCCN(CCC)CCSc1nc(O)c(C(C)C)c(=O)[nH]1	2	3	4	8	-9	-2	7
25	CC(C)c1c(O)nc(SCCN(C)C)[nH]c1=O	-3	5	-2	-1	-4	0	-1
26	NC(=O)c1ccc(S(=O)(=O)N2CCSCC2)cc1	-5	6	-3	7	4	-13	-1
27	O=C(C1CCCN(CCCc2ccccc2)C1)N1CCCCC1 (configuration not stated)	-3	5	-1	1	4	-15	7
28	CCC(=O)c1ccccc1OCCN1CCN(Cc2ccccc2)CC1	-1	4	-1	3	3	-21	1
29	Cc1ccc(S(=O)(=O)Nc2cnn(-c3ccccc3)c(=O)c2Cl)cc1	-2	-2	0	2	2	-4	-5
30	Cc1ccccc1Cn1c(=O)n(Cc2ccco2)c(=O)c2ccccc21	2	14	0	8	1	-10	2

nr	molecule	PAD4 inh	PAFAH1B3 inh	LYPLA1 counter	LYPLA2 counter	PAFAH2 FP inh	ZTA DNA inh	EBNA-1 inh
31	CCOC(=O)C1=NN(c2ccc(OC)cc2)C2C(=O)N(c3ccccc3OC)C(=O)C12 (configuration not stated)	3	8	2	0	1	-13	-6
32	CC(C)CCNC(=O)[C@H](Cc1ccccc1)N1Cc2ccccc2C1=O	1	2	1	7	-2	-15	4
33	O=C1CCCC(O)=C1C=Nc1ccc2c(c1)oc1ccccc12	-1	3	0	8	2	-3	-7
34	O=S(=O)(/C=C/c1ccccc1)N1CCN(c2ccccc2)CC1	0	7	-1	0	5	-8	-1
35	CCC(=O)Nc1ccc(-c2nn3c(C)nnc3s2)cc1C	3	7	0	5	-2	11	3
36	CC(C)Cc1c(O)nc(SCCN2CCOCC2)[nH]c1=O	-1	5	-2	-8	4	-2	-6
37	CCOc1ccc(N2CC(C(=O)NCCN3C(=O)S/C(=C/c4cccnc4)C3=O)CC2=O)cc1 (configuration not stated)	/	2	/	/	-2	/	/
38	COCCOc1cc(N)c(Cl)cc1Cl	3	-1	2	5	-7	2	1
39	CC1=CC(C)(C)Nc2ccc(OC(=O)c3ccco3)cc21	1	7	0	8	8	-1	9
40	O=C(NC1(C(F)(F)F)C(=O)Nc2c1c(=O)[nH]c(=O)n2-c1ccc(F)cc1)c1cccnc1 (configuration not stated)	1	11	0	-1	9	-1	-2
41	C=CCn1c(Cc2csc(N)n2)nnc1SCC(=O)Nc1ccccc1C(F)(F)F	3	-1	-3	1	9	4	0
42	CCOC(=O)c1c(-c2ccccc2)nnn1-c1nc(OC)nc(N2CCOCC2)n1	-1	5	-1	1	-1	4	4
43	COCCn1nnnc1C(c1cc2cccc(C)c2[nH]c1=O)N1CCN(c2ccccc2F)CC1 (configuration not stated)	1	7	0	-1	-6	11	9
44	COc1ccccc1N1C(=O)C2CC=CC(C)C2C1=O (configuration not stated)	-4	1	1	-4	2	7	5
45	CCCNC(=O)COC(=O)c1cc(C)nc2ccccc12	-8	3	-2	-5	3	-4	-23

nr	molecule	PAD4 inh	PAFAH1B3 inh	LYPLA1 counter	LYPLA2 counter	PAFAH2 FP inh	ZTA DNA inh	EBNA-1 inh
46	Cc1nnc(NC(=O)CSc2nnc(CCNC(=O)c3ccccc3F)n2C)s1	1	6	-2	2	5	5	-3
47	CCn1c(Cc2ccccc2)nnc1SCC(=O)Nc1ccc(S(N)(=O)=O)cc1	-2	-3	-2	-3	1	6	-7
48	CSc1nc(Oc2ccccc2)c2sccc2n1	-2	6	2	8	-3	3	-10
49	COc1cccc(C(=O)N2CCN(Cc3ccccc3Br)CC2)c1	-2	10	-2	-2	5	-1	-6
50	CC(=O)O[C@H]1c2ccccc2-c2ccccc2[C@@H]1OC(C)=O	-3	11	4	9	-2	-9	-19
51	CSc1ccc(S(=O)(=O)NCCSc2ccccn2)cc1	0	8	-1	-2	-1	1	-5
52	C=CCn1c(SCC(=O)Nc2ccccc2F)nnc1C(C)NC(=O)c1ccccc1F (configuration not stated)	3	6	-2	2	-1	4	-7
53	C/C(=N\NC(=O)c1ccc(NS(=O)(=O)c2cccs2)cc1)c1ccc(C(C)(C)C)cc1	5	-3	1	-5	-1	-14	-1
54	COc1ccc(OC(=O)c2cccnc2)cc1	-1	1	2	-2	-4	14	5
55	O=C(NC1CCCCCCC1)c1cnccn1	-3	7	-2	3	0	-4	4
56	CCOC(=O)C1CCN(Cc2ccc(OC)c(C)c2OC)CC1	-3	7	0	0	-6	-22	-9
57	CCOCCCNC(=O)c1ccccc1Br	1	4	1	2	1	-8	8
58	COc1cccc(N/C(SCc2cccc([N+](=O)[O-])c2)=C(/C#N)C(=O)NCc2cccs2)c1	1	6	-1	0	1	10	9
59	COc1ccc(OC)c(NC(=O)CSc2nnc(N)s2)c1	-4	1	1	7	5	10	3
60	c1cncc(CNc2cccc(-c3nc4ccccc4[nH]3)c2)c1	-3	-1	0	7	5	-13	4

Shown as labelled records: 4 of the compounds above.
[55] O=C(NC1CCCCCCC1)c1cnccn1
  PAD4 inh: -3
  PAFAH1B3 inh: 7
  LYPLA1 counter: -2
  LYPLA2 counter: 3
  PAFAH2 FP inh: 0
  ZTA DNA inh: -4
  EBNA-1 inh: 4

[56] CCOC(=O)C1CCN(Cc2ccc(OC)c(C)c2OC)CC1
  PAD4 inh: -3
  PAFAH1B3 inh: 7
  LYPLA1 counter: 0
  LYPLA2 counter: 0
  PAFAH2 FP inh: -6
  ZTA DNA inh: -22
  EBNA-1 inh: -9

[57] CCOCCCNC(=O)c1ccccc1Br
  PAD4 inh: 1
  PAFAH1B3 inh: 4
  LYPLA1 counter: 1
  LYPLA2 counter: 2
  PAFAH2 FP inh: 1
  ZTA DNA inh: -8
  EBNA-1 inh: 8

[58] COc1cccc(N/C(SCc2cccc([N+](=O)[O-])c2)=C(/C#N)C(=O)NCc2cccs2)c1
  PAD4 inh: 1
  PAFAH1B3 inh: 6
  LYPLA1 counter: -1
  LYPLA2 counter: 0
  PAFAH2 FP inh: 1
  ZTA DNA inh: 10
  EBNA-1 inh: 9

(continued)
nr	molecule	PAD4 inh	PAFAH1B3 inh	LYPLA1 counter	LYPLA2 counter	PAFAH2 FP inh	ZTA DNA inh	EBNA-1 inh
61	O=C(Cn1c(=O)n(Cc2ccco2)c(=O)c2ccccc21)Nc1cccc(Cl)c1	1	-2	-2	-11	-13	-2	-2
62	Cc1nc2ccc(NC(=O)N3CCSCC3)cc2s1	-3	1	3	-2	-4	3	3
63	O=S(=O)(Nc1ccc2c(c1)OCCO2)c1ccc2oc3ccccc3c2c1	2	-4	-17	-28	-9	10	2
64	C1CN(c2nc3nonc3n3nnnc23)CCO1	0	4	0	-4	3	1	4

From entry 1 to 2, copied from above:
nr	molecule	PAD4 inh	PAFAH1B3 inh	LYPLA1 counter	LYPLA2 counter	PAFAH2 FP inh	ZTA DNA inh	EBNA-1 inh
1	O=C(NCc1ccccc1)c1ccc(COCC(F)(F)F)o1	-2	7	-2	-1	-15	7	10
2	CCS(=O)(=O)Nc1ccc(-c2ccc(NS(=O)(=O)CC)c(OC)c2)cc1OC	-4	2	2	-1	6	6	11
